# Screening data as filed in PubChem.
# PKD1 kinase inh = inhibitors of human PKD1 kinase, biochemical, fluorescence polarization. Serine/threonine-protein kinase D1 (Homo sapiens), Q15139. actives 0.056% (n = 200,000). AID 797, 2007. PKD1 kinase fluorescence polarization assay. inhibition, %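 (about 10 µM by stock and volumes)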;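 active = inhibition of 50% or more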;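 also: controls were vehicle for no effect and a reference inhibitor for full effect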
# RGS16-Gao HTS = modulators of RGS16 binding to Galphao, primary screen, biochemical, human proteins, multiplexed bead flow cytometry; Regulator of G-protein signaling 16 (Homo sapiens) + Guanine nucleotide-binding protein …; bead-based flow cytometry RGS16-Galphao binding, fluorescence; actives lie on both sides; binding response (% of control), % at 10 µM; actives 0.38% (n = 220,000); AID 1441, 2008;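 active = below 25% or above 175%, edge rows of some plates excepted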;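 also: Galphao activated by GDP with aluminum fluoride before binding; 100% = wells without compound and 0% = beads without RGS; some results beyond the cut were filed as inactive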
# Target sequence (O15492 whole entry, looked up): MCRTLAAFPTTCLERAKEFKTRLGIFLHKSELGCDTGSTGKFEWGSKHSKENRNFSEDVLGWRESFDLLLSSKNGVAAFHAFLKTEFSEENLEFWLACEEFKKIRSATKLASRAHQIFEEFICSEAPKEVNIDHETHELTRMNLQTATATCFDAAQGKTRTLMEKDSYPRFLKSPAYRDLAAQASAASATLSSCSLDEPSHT
# Target sequence (P09471 whole entry, looked up): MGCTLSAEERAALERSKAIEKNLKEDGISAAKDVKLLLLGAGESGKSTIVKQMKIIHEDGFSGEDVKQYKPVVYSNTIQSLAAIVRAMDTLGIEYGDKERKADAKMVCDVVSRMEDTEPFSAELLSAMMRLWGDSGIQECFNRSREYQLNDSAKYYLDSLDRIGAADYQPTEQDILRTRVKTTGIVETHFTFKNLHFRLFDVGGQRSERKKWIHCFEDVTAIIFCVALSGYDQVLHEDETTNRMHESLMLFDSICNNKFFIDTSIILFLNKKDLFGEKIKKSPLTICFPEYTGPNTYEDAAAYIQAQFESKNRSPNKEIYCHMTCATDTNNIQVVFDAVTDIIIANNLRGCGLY
# GALR2 agonist = GALR2 receptor agonists, primary screen, cell-based; Galanin receptor type 2 (Homo sapiens), O43603; GALR2-expressing cells, agonist activation read-out; activation, %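 (tested at 5 µM)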; actives 0.48% (n = 140,000);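 active = above mean plus 3 SD of all compounds, about 5% in these data, not always enough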;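 also: 0% = vehicle buffer wells and 100% = reference agonist at full effect; tested in CHO reporter cells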
# Target sequence (O43603 whole entry, looked up): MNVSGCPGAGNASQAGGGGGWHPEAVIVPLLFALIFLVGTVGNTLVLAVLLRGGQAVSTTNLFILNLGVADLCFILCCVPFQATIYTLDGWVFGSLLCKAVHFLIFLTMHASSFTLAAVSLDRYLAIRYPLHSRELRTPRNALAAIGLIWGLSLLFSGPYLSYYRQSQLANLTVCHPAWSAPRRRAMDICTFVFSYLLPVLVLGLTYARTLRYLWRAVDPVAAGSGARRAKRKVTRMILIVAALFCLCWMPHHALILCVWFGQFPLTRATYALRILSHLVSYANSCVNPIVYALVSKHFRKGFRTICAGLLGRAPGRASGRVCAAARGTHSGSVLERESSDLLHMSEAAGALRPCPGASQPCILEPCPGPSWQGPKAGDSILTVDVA
# HSV augment = enhancers of HSV replication in host cells, fold increase, host cell viability | maximum fold increase | HSV replication augmentation in cells | actives 0.005% (n = 220,000);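 active = peak rise of 1.5-fold or more in the series; tested in PC3 cells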;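 also: first round at 10 µM; read as green reporter fluorescence; hits show the peak of a series up to 25 µM; 1 = signal of infected wells without compound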
# Insulin prom inh = inhibitors of insulin promoter-driven GFP, primary screen, imaging, TRM-6 cells (human fetal islet line), eGFP reporter, cell count; reporter expression induced with tamoxifen; inhibition, % at 2 µM; actives 0.9% (n = 130,000); AID 1273, 2008;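 active = inhibition above the mean plus 3 SD, with well images judged a real hit on visual review, cut at about 60% in these data, passing the limit was not always enough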
# Insulin prom inh cell count = also measured in Insulin prom inh; calls as there; normalized cell count, %; measured here: cell count, toxicity; reference of the scale not given here;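 cells exposed to compound for 48 h; stained nuclei by imaging scaled within each plate; lower means fewer cells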
# HSV augment primary fold = also measured in HSV augment; calls as there; fold increase; compound at 10 µM; measured here: primary screen fold increase 10 uM; tested in PC3 cells;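 GFP signal in the first replicate; 1 = infected wells without compound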
# Numbers without * were called inactive; i = inactive; . = not tested or not shown.
# Values in the order: PKD1 kinase inh	RGS16-Gao HTS	GALR2 agonist	HSV augment	HSV augment primary fold	Insulin prom inh	Insulin prom inh cell count
1: CC(C)C(OC(=O)c1ccco1)C(=O)NCc1cccs1 (stereo unspecified)
 : -12	96	-1.3	i	0.89	16	79
2: N#Cc1c(-c2ccc(Cl)cc2)c2c([nH]c1=O)-c1ccccc1OC2
 : .	104	.	i	1.2	.	.
3: O=c1c(Cc2ccc(F)cc2)c(O)ccn1CCCn1ccnc1
 : 2	99	.	i	1.1	.	.
4: COc1ccc2nc(NC(=O)CNS(=O)(=O)c3cccs3)sc2c1
 : -4	75	-1.8	i	0.96	19	114
5: CCOc1ccc(/C=N/NC(=O)C(OC)c2ccccc2)cc1 (stereo unspecified)
 : 5	102	.	i	1	.	.
6: CC(=O)N(CN1C(=O)C2C3C=CC(C3)C2C1=O)c1cccc(Cl)c1 (stereo unspecified)
 : 0	104	.	i	1	9	47
7: COc1ccc(OC)c2c1C(=O)c1ccccc1C2=O
 : 24	101	-3.2	i	0.98	.	.
8: Cc1ccc2nc(NC(=O)Cn3cc4c(n3)CCCCC4)sc2c1
 : 5	100	-2.1	i	0.87	.	.
9: CC(=O)Nc1ccc(C(=O)OCc2ccc(F)cc2Cl)cc1
 : -4	101	.	i	1.1	-19	92
10: COc1ccccc1CCc1nnc(CCC(=O)NC(C)Cn2nc(C)cc2C)o1 (stereo unspecified)
 : -11	110	.	i	1	-71	37
11: O=C(Cn1cnc2ccccc21)N/N=C/c1cccnc1
 : 0	84	.	i	0.99	.	.
12: Cc1ccc(S(=O)(=O)c2cc3ccccc3oc2=Nc2ccc3c(c2)OCCO3)cc1
 : -7	108	-0.9	i	0.84	-21	105
13: COc1ccc(CCNC(=O)CCn2c(=O)c3ccccc3n(CC(=O)NCC3CCCO3)c2=O)cc1OC (stereo unspecified)
 : -4	107	.	i	1.1	-3	109
14: CCOC(=O)Cc1csc(NC(=O)c2ccc(S(=O)(=O)N3CCCCC3)cc2)n1
 : -7	110	-0.4	i	0.96	36	123
15: O=C(COC(=O)c1cccnc1Nc1cccc(C(F)(F)F)c1)NC1CCS(=O)(=O)C1 (stereo unspecified)
 : -6	90	-1.4	i	0.93	41	82
16: COc1ccc(CN2CCC(CO)(CCOc3ccccc3)CC2)c(OC)c1C
 : 3	112	.	i	0.77	.	.
17: COc1ccc(C2C=C(C)Nc3nc(SC)nn32)cc1 (stereo unspecified)
 : 7	102	-0.6	.	.	.	.
18: Clc1ccc(/C=N/Nc2nnc(Cl)c3ccccc23)cc1
 : -2	100	0.0	i	0.91	69	147
19: O=c1c2ccccc2oc2nc(-c3ccco3)n(Cc3ccccc3)c(=O)c12
 : 17	100	0.1	i	1.1	22	87
20: CCC(=O)N1CCc2cc(S(=O)(=O)CCC(=O)Nc3ccc(OC)c(OC)c3)ccc21
 : -6	99	.	i	0.98	-21	78

# Sorted by value in RGS16-Gao HTS (lowest first): some entries from above
no. | molecule | PKD1 kinase inh | RGS16-Gao HTS | GALR2 agonist | HSV augment primary fold
15 | O=C(COC(=O)c1cccnc1Nc1cccc(C(F)(F)F)c1)NC1CCS(=O)(=O)C1 (stereo unspecified) | -6 | 90 | -1.4 | 0.93
8 | Cc1ccc2nc(NC(=O)Cn3cc4c(n3)CCCCC4)sc2c1 | 5 | 100 | -2.1 | 0.87
6 | CC(=O)N(CN1C(=O)C2C3C=CC(C3)C2C1=O)c1cccc(Cl)c1 (stereo unspecified) | 0 | 104 | . | 1
13 | COc1ccc(CCNC(=O)CCn2c(=O)c3ccccc3n(CC(=O)NCC3CCCO3)c2=O)cc1OC (stereo unspecified) | -4 | 107 | . | 1.1
12 | Cc1ccc(S(=O)(=O)c2cc3ccccc3oc2=Nc2ccc3c(c2)OCCO3)cc1 | -7 | 108 | -0.9 | 0.84

# Next results follow:
# Values in the order: PKD1 kinase inh	RGS16-Gao HTS	GALR2 agonist	HSV augment	HSV augment primary fold	Insulin prom inh	Insulin prom inh cell count
21: CCOC(=O)Cc1c(C)[nH]n(-c2ccccc2)c1=O
 : .	91	.	i	1.1	.	.
22: CCOC(=O)COc1nc(OC)nc(N2CCOCC2)n1
 : -1	102	-1.0	i	0.76	.	.
23: COc1cc(/C=C(\NC(=O)c2ccccc2)C(=O)NCC(=O)O)c([N+](=O)[O-])cc1OC
 : 0	65	-0.1	i	0.86	0	84
24: CC1CCN(C(=O)Cn2nnc(-c3cccs3)n2)CC1
 : 7	102	.	i	0.92	.	.
25: CN1CCC(=NNC(=O)CSCc2ccccc2)CC1
 : 15	101	-2.9	i	0.78	.	.
26: O=C(NCC1COc2ccccc2O1)C1CCC(CNc2c(N3CCCCC3)c(=O)c2=O)CC1 (stereo unspecified)
 : -11	100	.	i	0.86	.	.
27: O=C(CC1CCCC1)Nc1nnc(C2CC2)s1
 : -2	103	-1.3	i	0.98	.	.
28: Cc1ccc(S(=O)(=O)n2[nH]c(=O)cc2N)cc1
 : 4	100	.	i	1	.	.
29: CN(C[C@H](Cc1ccccc1)N(C[C@H](Cc1cccc2ccccc12)N(CCc1ccccc1)N=O)N=O)N=O
 : .	80	.	i	0.81	.	.
30: O=C(CSc1nnc(-c2ccncc2)n1CC1CCCO1)NCc1ccccc1 (stereo unspecified)
 : 1	92	-1.3	i	1.1	8	76
31: COc1ccccc1C(=O)O/N=C(\N)c1ccccn1
 : .	94	.	i	0.98	.	.
32: Cc1ccc(Cn2nc(C)c(NC(=O)c3cc(-c4ccco4)on3)c2C)cc1
 : 0	100	-1.3	.	.	-12	122
33: O=C(c1cccc(S(=O)(=O)N2CCOCC2)c1)N1CCCC1
 : -2	114	-0.9	i	0.71	.	.
34: O=C(CCN1c2ccccc2Sc2ccccc21)Oc1ccccc1
 : -5	92	-1.2	i	1	31	116
35: C/C(N)=C(/C#N)C(=O)COC(=O)c1cc(-c2cccc(Br)c2)nc2ccccc12
 : -1	126	0.7	i	0.66	-10	55
36: Cc1ccc(Nc2nc3c(s2)CCC3)c(C)c1
 : -1	106	-2.2	i	1	56	134
37: C=CCC(NCc1ccccc1)c1ccccc1 (stereo unspecified)
 : -7	97	-1.4	i	1.1	.	.
38: Cc1ccc(-n2nc(C)c3c2OC(N)=C(C#N)C3c2ccncc2)cc1 (stereo unspecified)
 : 5	104	-2.7	i	0.85	.	.
39: S=C(NCCNCc1ccccc1)NC1CCCCC1
 : 0	99	.	i	0.94	.	.
40: O=C(NCc1ccc2c(c1)OCO2)C1CCC(CNc2c(N3CCCC3)c(=O)c2=O)CC1 (stereo unspecified)
 : -6	98	-1.3	.	.	0	170

# Reformatted tab-delimited: two of the compounds above.
No.	SMILES	PKD1 kinase inh	RGS16-Gao HTS	GALR2 agonist	HSV augment	HSV augment primary fold	Insulin prom inh	Insulin prom inh cell count
39	S=C(NCCNCc1ccccc1)NC1CCCCC1	0	99	.	i	0.94	.	.
40	O=C(NCc1ccc2c(c1)OCO2)C1CCC(CNc2c(N3CCCC3)c(=O)c2=O)CC1 (stereo unspecified)	-6	98	-1.3	.	.	0	170

# Entries of single compounds as entered above:
# Entry for CC(=O)Nc1ccc(C(=O)OCc2ccc(F)cc2Cl)cc1 = PKD1 kinase inh = -4; RGS16-Gao HTS = 101; GALR2 agonist = .; HSV augment = i; HSV augment primary fold = 1.1; Insulin prom inh = -19; Insulin prom inh cell count = 92
# Entry for O=C(CC1CCCC1)Nc1nnc(C2CC2)s1 = PKD1 kinase inh = -2; RGS16-Gao HTS = 103; GALR2 agonist = -1.3; HSV augment = i; HSV augment primary fold = 0.98; Insulin prom inh = .; Insulin prom inh cell count = .

# (cont.)
# Values in the order: PKD1 kinase inh	RGS16-Gao HTS	GALR2 agonist	HSV augment	HSV augment primary fold	Insulin prom inh	Insulin prom inh cell count
41: O=C(CSc1nc2ccc(Cl)cc2[nH]1)c1ccc2c(c1)OCO2
 : -2	119	-0.8	i	1.3	35	137
42: Cc1nnc(C)n1/N=C/c1ccc2c(c1)OCCO2
 : -5	98	-2.1	i	0.92	17	114
43: COc1ccc(CCNC(=O)c2cc(-c3cc(Cl)ccc3O)n[nH]2)cc1OC
 : .	98	.	i	0.84	.	.
44: Cc1cc(C)c2c(N)c(C(=O)c3ccc(Cl)cc3Cl)sc2n1
 : -10	123	-0.8	i	0.71	.	.
45: CCOC(=O)C1CCN(S(=O)(=O)c2ccc3c(c2)CCCN3C(C)=O)CC1
 : .	106	.	i	1.1	.	.
46: Cc1noc(N)c1C(=O)Nc1ccccc1F
 : -7	107	-0.7	i	1	14	115
47: O=C(NCc1ccco1)c1ccc([N+](=O)[O-])o1
 : -2	91	.	i	1	.	.
48: CCC(=O)NCc1c(Cl)cccc1-n1cccc1
 : -7	125	-1.1	i	1.3	18	65
49: N/C(=N\OC(=O)c1ccc2c(c1)OCO2)c1ccc([N+](=O)[O-])cc1
 : -3	90	.	i	1	.	.
50: COc1ccc(F)cc1C(=O)C1CCCN(C(=O)CCc2ccccn2)C1 (stereo unspecified)
 : -7	102	.	i	0.94	-35	118
51: Oc1ccc(Br)cc1-c1cc(-c2ccccc2)n[nH]1
 : 5	100	-2.0	i	0.65	69	61
52: CCOc1ccccc1NC(=O)COn1nnc2ccc(Cl)cc21
 : -12	113	1.2	i	1	3	92
53: O=C(NCC1CCCO1)C1CCC(=O)N1CCc1ccccc1 (stereo unspecified)
 : -1	100	-0.3	i	0.98	-54	51
54: CC(C)(C)N1NC2(CCCCC2)NC1=S
 : -5	98	.	i	0.95	.	.
55: Cc1cccc(/C(N)=N/OC(=O)c2cccnc2)c1
 : -1	102	.	i	1	.	.
56: Cc1ccc(NC(=O)N(CCCN2CCOCC2)Cc2cccs2)cc1C
 : -6	100	-3.0	i	0.94	.	.
57: C/C(CC(=O)Nc1cccc(C(F)(F)F)c1)=N\NC(=O)Cc1ccccc1
 : -1	99	.	i	1	-15	135
58: O=C(COc1ccc(Cl)cc1)N1CCN(C(=O)c2cccc(F)c2)CC1
 : -1	94	-1.9	i	1	-44	97
59: COC(=O)C1(CCSC)NC(c2ccccc2F)C2C(=O)N(c3ccc4c(c3)OCCO4)C(=O)C21 (stereo unspecified)
 : -10	112	.	i	0.87	-43	198
60: CCOC(=O)N(NC(=O)C(O)(C(C)C)C(C)C)c1ccccc1
 : -4	100	.	i	1	-112	104

# For convenience, part of the list above.
# Values in the order: PKD1 kinase inh	RGS16-Gao HTS	GALR2 agonist	HSV augment	HSV augment primary fold	Insulin prom inh	Insulin prom inh cell count
59: COC(=O)C1(CCSC)NC(c2ccccc2F)C2C(=O)N(c3ccc4c(c3)OCCO4)C(=O)C21 (stereo unspecified)
 : -10	112	.	i	0.87	-43	198
60: CCOC(=O)N(NC(=O)C(O)(C(C)C)C(C)C)c1ccccc1
 : -4	100	.	i	1	-112	104

# Next compounds
# Values in the order: PKD1 kinase inh	RGS16-Gao HTS	GALR2 agonist	HSV augment	HSV augment primary fold	Insulin prom inh	Insulin prom inh cell count
61: Cc1cc(C(=O)Nc2ccccc2)oc1C
 : -1	81	-0.6	i	1	19	72
62: CCCN(CCO)Cc1ccc(Cl)c(Cl)c1
 : -6	98	-0.8	i	1	-27	92
63: N/C(=N\OS(=O)(=O)c1ccccc1)c1ccncc1
 : -12	101	-2.2	i	1	0	182
64: COc1ccc2[nH]c3c(N4CC(C)OC(C)C4)ncnc3c2c1 (stereo unspecified)
 : 2	104	-0.2	i	0.95	19	208
65: Cn1cc(CN2CCCC(C(=O)c3ccc(-c4ccccc4)c(F)c3)C2)cn1 (stereo unspecified)
 : 6	98	.	i	1	.	.
66: Cc1ccc(S(=O)(=O)n2c(CN3CCCC(C)C3)nc3ccccc32)cc1 (stereo unspecified)
 : -1	99	-1.4	i	0.98	.	.
67: N#CC1=C(N)SC2(CCCCC2)SC1c1ccccc1 (stereo unspecified)
 : 0	102	-2.4	i	0.78	-9	116
68: COC(=O)c1cc(S(=O)(=O)N2CCOCC2)c(Cl)cc1N1CCOCC1
 : -1	96	-1.1	i	0.95	21	110
69: Nc1nnc(SCC(=O)N2CCN(c3cccc(Cl)c3)CC2)n1-c1ccccc1
 : -13	102	-2.1	i	0.78	-48	61
70: CS(=O)(=O)N(Cc1ccc(C(=O)NN=C2CCCC2)cc1)c1ccccc1
 : -8	110	-0.8	i	0.94	4	88
71: CCCNC(=O)CC1C(=O)N(Cc2ccccc2)C(C)c2nc3ccccc3n21 (stereo unspecified)
 : 2	108	-0.3	i	0.87	-62	98
72: CCN(CC)C(=O)Cn1cnc2ccccc2c1=O
 : -2	100	-1.2	i	1.1	-6	85
